Screening data: PubChem, PCMD
Biofilm kill mix – mixtures killing C. albicans biofilm; inhibition, % at 7.6 µM; C. albicans biofilm persisters + clotrimazole, fluorescence viability; primary screen in compound mixtures of four per well; 120,000 compounds, 0.02% hits;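 active = inhibition above 30.3% in the primary screen of four-compound pools, then above 30% when the compound was retested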;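 also: compounds exposed to preformed 24 h biofilms for 48 h; the number belongs to the whole pool; some results filed as inactive read as strong as hits; inactives centre near 12; 0% = biofilm with clotrimazole alone and 100% = kill control; retested singly at about 60 µM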
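System: C. albicans CAF4-2 wild-type biofilms; Medium: RPMI/MOPS medium, pH 7.0; Reagent: Clotrimazole, 50 µg/mL; Times: biofilm formation 24 h, compound exposure 48 h, 37 °C; Detection: 2-h Alamar Blue fluorescence, 535/590 nm excitation/emission; Evaluation: percent inhibition of biofilm viability.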
* hit, by the source's call. An excerpt, so the mix of outcomes need not match the whole.

molecule | Biofilm kill mix
CCN(CC1CCCO1)C(=O)CCc1nnc(Cc2ccc3c(c2)OCO3)o1 (centres undefined) | 10.8
O=C(OCC(=O)N1CCc2ccccc2C1)c1cccnc1Cl | 16.7
COc1ccc(S(=O)(=O)N2CCN(C(=O)Cc3cccs3)CC2)cc1 | 26.6
COC(=O)Cc1cc(OC)c(OC)cc1S(=O)(=O)N(C)C | 12.8
COc1ccc(/C(C)=N/N2CCOCC2)c(O)c1 | 14.2
CCC(NC(=O)COc1ccc([N+](=O)[O-])cc1)c1ccccc1 (centres undefined) | 5.2
CCOP(=O)(OCC)c1nc(-c2cccc([N+](=O)[O-])c2)oc1N1CCCCC1 | 18.8
O=C(COC(=O)CC12CC3CC(CC(C3)C1)C2)Nc1cccnc1Cl | 9.5
Cc1ccc(C(=O)NC2CCN(CC(=O)NCc3cccs3)CC2)cc1 | -4.9
CN1CCN(c2ccccc2/C=N/NC(=O)c2cccnc2)CC1 | 15.1
COc1ccc(NC(=S)Nc2ccc(S(N)(=O)=O)cc2)c(OC)c1 | 22.7
CCCCC(=O)Nc1ccccc1N1CCN(c2ccccc2)CC1 | 13.9

(cont.)
molecule | Biofilm kill mix
CCOc1ccc(S(=O)(=O)NCc2ccc(Cl)cc2)c2cccnc12 | 6.3
O=C(COC(=O)c1ccccc1Nc1ccccc1)NCc1ccccc1 | -7.5
Cc1ccc(S(=O)(=O)Nc2cc(C(C(=O)OC(C)C)C(=O)C(F)(F)F)c(O)c3ccccc23)c(C)c1 (centres undefined) | 18.9
O=C(NC1CCCC1)c1cccc(Cl)c1 | 9.3
CCOC(=O)c1c(-c2ccc(C)cc2)csc1NC1=NS(=O)(=O)c2ccccc21 | 8.5
CCCNCc1cc(OC)c(OCCC)cc1Cl | 13.1
Cc1cc(=O)[nH]c(N/N=C/c2c(O)n(-c3ccccc3)c(=O)c3ccccc23)n1 | 13.9
COc1ccc(/C=C/C(=O)O)cc1S(=O)(=O)Nc1ccc2c(c1)OCO2 | 5.7
COc1cccc(CNc2ccc([N+](=O)[O-])cc2Cl)c1O | 19.9
C=C(C)CNC(=S)N/N=C/c1ccc([N+](=O)[O-])cc1 | 11.6
Cc1cc(NC(=O)c2c(Cl)cccc2Cl)no1 | -1.5
CCOc1ccc(C(=O)c2cc([N+](=O)[O-])ccc2N2CCOCC2)cc1 | 9.2

Continued.
molecule | Biofilm kill mix
CCC(C)(C)NC(=O)CN(Cc1cccs1)C(=O)CNS(=O)(=O)c1ccc(F)cc1 | 7.2
COc1ccc2c(c1)C(=C(C#N)C#N)C(=O)N2CCc1ccccc1 | 18.4
CN(C)S(=O)(=O)c1ccc2c(c1)nc(CCC(=O)Nc1ccc3c(c1)OCO3)n2C | 3.8
COc1ccccc1S(=O)(=O)Cc1ccc(C(=O)NCC2CCCO2)o1 (centres undefined) | 8.9
CNC(=O)NC(=O)C(C)OC(=O)CCCc1nc2ccccc2s1 (centres undefined) | 8.4
O=C(NCc1ccc(Cl)cc1)c1ccccc1CCc1ccccc1 | 7.7
COc1ccc(C(=O)NCCc2ccc(F)cc2)cc1OC | 1.2
C=CCn1c(-c2ccc3ncccc3c2)n[nH]c1=S | 16.2
CCOc1ccc2c(c1)OC(c1ccc(C)cc1)(C(F)(F)F)NC2=O (centres undefined) | 17.1
Cc1ccc(NC(=O)CSc2ccccc2NC(=O)c2cccc(Cl)c2)cc1Cl | -1.1
COc1ccc(C(=O)Nc2ccccc2NC(=O)c2ccco2)c(OC)c1 | 10.4
CC(OC(=O)c1ccc2ncsc2c1)C(=O)NCc1ccccc1 (centres undefined) | 14.1

(list continues)
molecule | Biofilm kill mix
CC(/C=N/NC(=O)c1sc(N)nc1C)=C\c1ccccc1 | 22.5
COc1ccc(-c2nn(-c3ccccc3F)cc2CNCCn2nc(C)cc2C)cc1 | -2.5
O=C1COCCOCCOCC(=O)NCCN1 | 11.5
S=C(NCCc1cnc[nH]1)NC1CCCC1 | 10.6
COc1ccc(-c2c(C)c3ccc(OCC(C)=O)cc3oc2=O)cc1 | 11.4
CN(NC(=O)Nc1ccc(Cl)cc1)c1c(Cl)c(Cl)nn1C | 16.1
Cc1cc(C)c(C(N)=O)c(Cl)n1 | 13.4
O=C(N/N=C/c1c[nH]c2ccccc12)c1ccc2c(c1)OCCO2 | 14.9
CCCCN1Cc2c(nc3cc(-c4ccccc4)[nH]n3c2=O)C1=O | 27.5
O=C(CN1C(=O)NC2(CCCc3ccccc32)C1=O)Nc1cccc(S(=O)(=O)N2CCCCC2)c1 (centres undefined) | 9.2
CCN(CC)CCNC(=O)c1[nH]c2ccc(OCc3ccccc3)cc2c1C | 1.9
O/C(=C\c1nc2ccccc2nc1/C=C(\O)c1ccccc1)c1ccccc1 | 9.2

Other entries:
molecule | Biofilm kill mix
CCOC(=O)N/N=C\c1ccc([N+](=O)[O-])s1 | 11.9
CC/C(=N\Nc1ccc([N+](=O)[O-])cc1)c1ccccc1 | 9.3
COc1ccc([N+](=O)[O-])cc1NC(=O)C(C)OC(=O)C1c2ccccc2Oc2ccccc21 (centres undefined) | -1.4
CN(Cc1ccccc1)S(=O)(=O)c1ccc(OCC(=O)N2CCC(C(N)=O)CC2)cc1 | 19.3
O=C(CSc1n[nH]c(=O)n1C1CC1)Nc1ccc(Cl)c(Cl)c1 | 14.3
O=C(c1ccc(Cn2c(=S)[nH]c3cc4c(cc3c2=O)OCO4)cc1)N1CCN(c2ncccn2)CC1 | -4.2
CC(C)(C)CN1CCNC(=O)C1CC(=O)NC1Cc2ccccc2C1 (centres undefined) | 4.2
CCOc1cc(O)c(-c2[nH]ncc2-c2nc(C)cs2)cc1CC | 19.1
N=C1C(c2nc3ccccc3s2)=C(O)CN1Cc1ccccc1 | 10.8
O=[N+]([O-])c1ccc2c(OCc3nnc(-c4ccccc4Br)o3)ncnc2c1 | 7.7
O=C(C1CCCO1)N1CCN(C(=S)Nc2ccccc2C(F)(F)F)CC1 (centres undefined) | 14.1
O=C(O)COc1ccc(-c2nccc(-c3ccccn3)n2)cc1 | 1.9

(further entries)
molecule | Biofilm kill mix
Cc1ccc(S(=O)(=O)/N=C(/Nc2ccc3[nH]c(=O)[nH]c3c2)c2ccc(F)cc2)cc1 | 18.0
CCNC(=S)N1CCC(C(N)=O)CC1 | 22.8
COc1ccc(NC(=O)[C@H](C)NC(N)=O)cc1S(=O)(=O)Nc1cc(C)ccc1Br | 18.8
FC(F)(F)Oc1ccc(-c2cn3cccnc3n2)cc1 | 17.8
O=C(CC1Sc2ccccc2NC1=O)Nc1cccnc1 (centres undefined) | 16.1
O=C(CN(Cc1ccco1)S(=O)(=O)c1ccccc1)N/N=C/c1ccccc1C(=O)O | 1.3
Cc1nc2c(S(=O)(=O)c3ccccc3)cnn2c(C)c1C | 18.1
O=c1[nH]c(N/N=C\c2ccc(F)cc2)nc2ccccc12 | 13.1
CC(=O)Nc1ccc(OS(=O)(=O)c2cc(Cl)ccc2C)cc1 | 13.7
CNC(=O)c1ccccc1S(=O)c1ccccc1COC(C)=O (centres undefined) | 21.9
CS(=O)(=O)c1ccccc1C(=O)N1CCN(Cc2ccccc2)CC1 | 5.1
Cc1cccc(OCc2n[nH]c(=S)o2)c1C | 8.1

(list continues)
molecule | Biofilm kill mix
Cn1c(=O)cc(OCC(=O)N2CCN(c3cccc(C(F)(F)F)c3)CC2)c2ccccc21 | 17.1
Cc1nn(-c2ccccc2)c(N)c1C1(O)C(=O)N(C)c2ccccc21 (centres undefined) | 7.6
CN=C(Nc1ccccc1)SC1CC(=O)N(c2cccc(OC)c2)C1=O (centres undefined) | 0.3
COc1ccc(C(=O)C2CCCN(C(=O)c3cc4nc(C)cc(C)n4n3)C2)cc1F (centres undefined) | 16.6
CC(C)Cn1c(SCC(=O)Nc2ncccn2)nc2ccccc21 | 14.4
CNS(=O)(=O)c1ccc(N=Cc2c(C)[nH]n(-c3ccc(C)cc3C)c2=O)cc1 | 29.7
N#CC1C(C#N)N2CCCN2C1c1ccc(Cl)cc1 (centres undefined) | 10.5
C/C(=N\NC(=S)NC1CCCCC1)c1c(F)cccc1F | 2.4
COc1ccc(C2CC(=O)Oc3c(C(CCN4CCN(c5ccccc5)CC4)c4ccc(N(C)C)cc4)c(OC)cc(OC)c32)cc1 (centres undefined) | 18.3
O=C(COc1ncnc2ccccc12)Nc1ccccc1[N+](=O)[O-] | 7.3
COc1ccc(S(=O)(=O)Nc2ccccc2C)cc1C(=O)N1CCOCC1 | 13.8
CCC1CCCCN1C(=O)CSc1nc2c([nH]c3ccccc32)c(=O)n1C (centres undefined) | 7.0

3 entries from above, set out differently:
Compound: CC(C)Cn1c(SCC(=O)Nc2ncccn2)nc2ccccc21
  Biofilm kill mix: 14.4

Compound: COc1ccc(S(=O)(=O)Nc2ccccc2C)cc1C(=O)N1CCOCC1
  Biofilm kill mix: 13.8

Compound: CCC1CCCCN1C(=O)CSc1nc2c([nH]c3ccccc32)c(=O)n1C (centres undefined)
  Biofilm kill mix: 7.0

(continued)
molecule | Biofilm kill mix
CN(C)C(=O)COC(=O)c1cccc(CN2C(=O)c3ccccc3C2=O)c1 | 5.9
Cc1ccc(C(=O)NCCc2nnc3ccc(SCC(=O)Nc4cc(C)on4)nn23)cc1 | 6.4
CC(=O)Oc1ccc(N(C(C)=O)S(=O)(=O)c2cc([N+](=O)[O-])ccc2C)cc1 | 16.6
CCOC(=O)Cc1csc(NC(=S)NC(=O)CC(C)C)n1 | -6.7
COc1ccc(NC(=O)/C(C#N)=C\c2cc(OC)c(OCc3ccc(C(=O)O)cc3)cc2Br)cc1 | 17.2
O=C(Cn1cnc([N+](=O)[O-])n1)NC1CC1 | 22.2
Cc1ccc(/C(O)=C2\C(=O)C(=O)N(CCc3c[nH]c4ccccc34)C2c2cccnc2)cc1 (centres undefined) | 5.8
Cc1[nH]c2ccc(C(C)C)cc2c1CC(=O)O | 13.4
Cc1ccccc1CCN(C(=O)CN1C(=O)c2ccccc2S1(=O)=O)C(C(=O)NCC1CCCO1)c1ccncc1 (centres undefined) | 19.1
CC[C@H]1OC(=O)[C@H](C)[C@@H](O[C@H]2C[C@@](C)(OC)[C@@H](O)[C@H](C)O2)[C@H](C)[C@@H](O[C@@H]2O[C@H](C)C[C@H](N(C)C)[C@H]2O)[C@](C)(O)C[C@@H](C)[C@@H]2N[C@@H](COCCOC)O[C@H]([C@H]2C)[C@]1(C)O | 6.6
Cc1cccc(NC(=O)c2nc[nH]c2C(=O)N[C@@H](CCCCNC(=O)OC(C)(C)C)C(=O)OC(C)(C)C)c1 | 5.5
CC12CCC(C(=O)N(NC(=O)c3cccnc3)C1=O)C2(C)C (centres undefined) | 11.6

Next part:
molecule | Biofilm kill mix
COC(=O)C1=C(C(=O)OC)[C@@H]2N(C)c3ccc(OC)cc3[C@@]23C[C@@H](C(=O)OC)N(C(=O)C2CCC2)C3=N1 | -0.2
COCCOc1cc(NC(=O)CS(=O)CC(=O)N(C)C)c(Cl)cc1Cl (centres undefined) | -10.9
Cn1c(CCC(=O)OCC(=O)NCc2ccc3c(c2)OCO3)nc(=O)c2ccccc21 | 5.1
CC(C(=O)Nc1cccnc1)C1Sc2ccccc2NC1=O (centres undefined) | 12.2
c1cnn(Cc2cnc(N3CCOCC3)s2)c1 | 0.5
Cc1cc(C)c(NC(=O)c2cnn(C)c2)c(C)c1 | 9.7
COc1ccccc1Nc1nc(-c2cccc(N3C(=O)c4ccccc4C3=O)c2)cs1 | 9.9
CC(C)c1ccccc1NC(=S)N(C)C | 1.6
Cc1ccc(CSc2nc3ccsc3c(=O)n2Cc2ccccn2)cc1 | 20.3
CCCCC(=O)N1C/C=C\C(c2ccc(OC)cc2)N(Cc2ccc(F)cc2)C(=O)C1 (centres undefined) | 8.7
COc1cc(/C=C2/S/C(=N/S(=O)(=O)Cc3ccccc3)NC2=O)c([N+](=O)[O-])cc1OC | 22.2
CCCc1nc2c(sc3nc4c(cc32)COC(C)(C)C4)c(=O)n1CCN(CC)CC | 18.6

Pulled by compound from above:
molecule | Biofilm kill mix
O=C(COC(=O)c1ccccc1Nc1ccccc1)NCc1ccccc1 | -7.5
O=C(CN1C(=O)NC2(CCCc3ccccc32)C1=O)Nc1cccc(S(=O)(=O)N2CCCCC2)c1 (centres undefined) | 9.2
O=C(NCc1ccc(Cl)cc1)c1ccccc1CCc1ccccc1 | 7.7
CCCCC(=O)N1C/C=C\C(c2ccc(OC)cc2)N(Cc2ccc(F)cc2)C(=O)C1 (centres undefined) | 8.7
CN(C)C(=O)COC(=O)c1cccc(CN2C(=O)c3ccccc3C2=O)c1 | 5.9

(further entries)
molecule | Biofilm kill mix
Cn1cccc1/C=C1\SC(=S)N(NC(=O)c2ccc(F)cc2)C1=O | 10.9
CN(C)c1nc(C#N)nc(N(C)C)n1 | 8.3
COc1ccc(C(=O)Nc2nccs2)cc1[N+](=O)[O-] | 21.3
COc1cc(/C=C/C(=O)OCC(=O)Nc2ccc(S(=O)(=O)N3CCCC3)cc2)ccc1O | 7.6
Cc1ccccc1Cn1c(=N)n(CC(=O)c2ccc([N+](=O)[O-])cc2)c2ccccc21 | 10.0
COc1cc(N2CCCC2)ccc1[N+](=O)[O-] | 9.3
CN(C)C(CNC(=O)c1ccc(NC(=O)CC#N)cc1)c1ccccc1 (centres undefined) | 10.1
COc1ccc(/C=C/C(=O)Oc2ccc(C)c(C)c2)cc1OC | 10.8
Cc1c(C(=O)C(=O)N2c3ccc(F)cc3CCC2C)c2ccccc2n1C (centres undefined) | 9.9
